High-throughput results as filed in PubChem.
AF4-AF9 inh = MLL-AF4/AF9 protein interaction inhibition. 350,000 tested, 0.47% active. inhibition, % at 10 µM. AlphaScreen, biotin-AF4 peptide binding to FLAG-AF9;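 active means every replicate reaching a set inhibition limit, whatever the replicate mean, cut at about 25% in these data; inconclusive means mean inhibition reaches that limit but some replicates miss it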;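 further: 0% = plate neutral control median and 100% = total signal loss; the record names both 10 and 1 µM as test concentration; the first replicate is given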
Target sequence (P42568 whole entry, looked up): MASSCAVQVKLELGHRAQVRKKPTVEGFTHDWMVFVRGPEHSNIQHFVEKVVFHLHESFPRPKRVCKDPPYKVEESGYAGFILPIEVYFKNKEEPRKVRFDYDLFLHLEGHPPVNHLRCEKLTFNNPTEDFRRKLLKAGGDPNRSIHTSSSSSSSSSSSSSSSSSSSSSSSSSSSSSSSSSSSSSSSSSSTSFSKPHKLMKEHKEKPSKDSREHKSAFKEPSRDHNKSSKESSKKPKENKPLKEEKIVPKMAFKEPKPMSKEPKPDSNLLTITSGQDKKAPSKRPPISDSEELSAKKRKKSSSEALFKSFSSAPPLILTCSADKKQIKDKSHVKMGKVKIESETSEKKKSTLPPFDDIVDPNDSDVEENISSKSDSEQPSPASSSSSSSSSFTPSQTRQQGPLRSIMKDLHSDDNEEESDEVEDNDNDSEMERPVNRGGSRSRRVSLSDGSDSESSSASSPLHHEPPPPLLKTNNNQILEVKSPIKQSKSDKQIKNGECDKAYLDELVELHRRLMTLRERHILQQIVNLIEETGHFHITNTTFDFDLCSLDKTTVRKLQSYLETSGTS
FGF22 binding = FGF22 (human) thermal shift binding | Q9HCT0 | recombinant FGF22 thermal shift, SYPRO orange fluorescence; percent of sucrose octasulfate shift, DMSO zero | calls only at 9.99 µM | 340,000 tested, 1.5% active | AID 651658;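 active means melting point raised past a set limit in the mean and every replicate; inconclusive means no clear call; three in four hits are not shown here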
Target sequence (Q9HCT0 whole entry, looked up): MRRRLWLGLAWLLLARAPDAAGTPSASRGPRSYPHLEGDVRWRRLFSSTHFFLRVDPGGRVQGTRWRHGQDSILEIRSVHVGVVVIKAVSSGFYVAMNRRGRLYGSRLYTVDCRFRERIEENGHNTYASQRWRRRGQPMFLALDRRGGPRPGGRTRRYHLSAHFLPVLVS
Ecoli rRNA inh = inhibitors of bacterial rRNA selective over humanized ribosomes; AID 720706; E. coli WT GFP vs humanized-ribosome RFP mutants, fluorescence, 24 h; stronger effect = lower value; DMSO median 0, no signal -100; GFP signal change (wild-type ribosome), % (test concentration not listed); 350,000 tested, 1.6% active;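 active means significant combined selectivity score with lowered wild-type GFP, culture density cut under 30%, mutant RFP and density less affected; inactive means any of these conditions unmet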; further: one replicate is shown; some compounds called inactive have numbers as strong as hits
Ecoli rRNA inh OD600 = second read-out of Ecoli rRNA inh, no call of its own (marks repeat the call); OD600 change, %; measured here: OD600 growth;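 optical density of the mix in the first replicate; 0 = DMSO median and -100 = no signal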
Ecoli rRNA inh RFP = also measured in Ecoli rRNA inh; calls as there; RFP signal change, %; measured here: RFP humanized mutant strains;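 first replicate; 0 = DMSO median and -100 = no signal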
* hit, by the source's call; i = inactive; u = inconclusive. Not all compounds are listed; the hit share may differ from the screen's.

SMILES | AF4-AF9 inh | FGF22 binding | Ecoli rRNA inh | Ecoli rRNA inh OD600 | Ecoli rRNA inh RFP
Cc1noc(C)c1S(=O)(=O)Nc1ccc2c(c1)C(=O)N([C@@H](C)CO)C[C@@H](C)[C@H](CN(C)C(=O)Nc1ccc(C(F)(F)F)cc1)OCCCC[C@@H](C)O2 | -1.9 | i | 3 | 6 | -0.8
C[C@H](CO)N1C[C@H](C)[C@H](CN(C)Cc2ccc3c(c2)OCO3)Oc2cc(-c3cccc(C(=O)N(C)C)c3)ccc2S1(=O)=O | 1.5 | i | 0 | 8 | 6.5
COc1ccc(NC(=O)COc2ccccc2C(N)=O)cc1S(=O)(=O)N1CCCCC1 | 0.1 | i | 1 | 2 | -1.5
CCCNC(=O)N(C)C[C@H]1Oc2ncc(-c3ccncc3)cc2C(=O)N([C@@H](C)CO)C[C@H]1C | -4.6 | i | 5 | 7 | -1.8
C[C@@H]1CN([C@@H](C)CO)C(=O)c2cccc(NC(=O)Nc3ccccc3)c2O[C@H]1CN(C)C(=O)Nc1ccc(C(F)(F)F)cc1 | 2.0 | i | -1 | -10 | -4.5
Cc1ccc(S(=O)(=O)N[C@H]2CC[C@@H](CCn3cc(C4CC4)nn3)O[C@H]2CO)cc1 | 4.9 | i | -3 | 0 | -0.8
CNC[C@H]1Oc2cc(C#Cc3ccccn3)ccc2S(=O)(=O)N([C@H](C)CO)C[C@@H]1C | -1.8 | i | 4 | 8 | 3.5
Cc1noc(C)c1NC(=O)Nc1cccc2c1O[C@@H](CN(C)S(C)(=O)=O)[C@@H](C)CN([C@@H](C)CO)C2=O | 4.1 | i | -3 | -2 | 5.6
O=C(Nc1ccccc1F)N1C[C@@H]2[C@H](c3ccccc31)[C@@H](CO)N2C(=O)Nc1ccccc1 | 1.0 | i | -42 | -68 | -4.7
CCC(=O)Nc1ccc2c(c1)C(=O)N(C)C[C@@H](OC)[C@H](C)CN(C(C)=O)[C@H](C)CO2 | -2.8 | i | 2 | 5 | -0.4
Cc1ccccc1S(=O)(=O)N[C@H]1CC[C@H](CCNS(=O)(=O)c2cccc(F)c2)O[C@H]1CO | -1.1 | i | -6 | -4 | 4.1
O=C(CN1CCOCC1)N[C@H]1CC[C@@H](CCn2cc(C3CC3)nn2)O[C@@H]1CO | -0.3 | i | 6 | 9 | -1.0
C[C@H](CO)N1C[C@H](C)[C@H](CN(C)C(=O)CN(C)C)Oc2cc(C#CCC3CCCC3)ccc2S1(=O)=O | 11 | i | 6 | -10 | 30
C[C@H](CO)N1C[C@H](C)[C@H](CN(C)C)Oc2cc(-c3cccc(F)c3)ccc2S1(=O)=O | 0.0 | i | 2 | 13 | -1.2
N#C[C@H]1[C@@H](c2ccccc2-c2ccc(F)cc2)[C@H](CO)N1C(=O)Cc1cccnc1 | -3.0 | i | 1 | -15 | 2.0
C[C@H](CO)N1C[C@H](C)[C@@H](CN(C)C(=O)C2CCCCC2)Oc2ncc(-c3cccc(C#N)c3)cc2C1=O | -2.9 | i | -2 | -5 | -1.5
CCCNC(=O)N(C)C[C@H]1Oc2cc(C#Cc3cccc(F)c3)ccc2S(=O)(=O)N([C@@H](C)CO)C[C@@H]1C | -0.6 | i | -7 | -28 | 5.5
COC(=O)[C@H]1[C@H](CO)[C@H]2Cn3c(ccc(-c4cccnc4)c3=O)[C@H]2N1Cc1ccccc1F | -0.9 | i | -2 | -3 | -1.6
C[C@H](CO)N1C[C@H](C)[C@@H](CN(C)C(=O)c2ccc(F)cc2)Oc2ncc(/C=C/c3ccccc3)cc2C1=O | 12 | i | -5 | -28 | 22
Cc1ccc(OC(=O)N(C)C[C@H]2OCc3ccccc3-c3ccccc3C(=O)N([C@H](C)CO)C[C@H]2C)cc1 | 2.3 | i | 0 | 1 | 0.2

Compounds listed so far with a CF3 group (two):
SMILES | AF4-AF9 inh | FGF22 binding | Ecoli rRNA inh | Ecoli rRNA inh OD600 | Ecoli rRNA inh RFP
Cc1noc(C)c1S(=O)(=O)Nc1ccc2c(c1)C(=O)N([C@@H](C)CO)C[C@@H](C)[C@H](CN(C)C(=O)Nc1ccc(C(F)(F)F)cc1)OCCCC[C@@H](C)O2 | -1.9 | i | 3 | 6 | -0.8
C[C@@H]1CN([C@@H](C)CO)C(=O)c2cccc(NC(=O)Nc3ccccc3)c2O[C@H]1CN(C)C(=O)Nc1ccc(C(F)(F)F)cc1 | 2.0 | i | -1 | -10 | -4.5

Further compounds
SMILES | AF4-AF9 inh | FGF22 binding | Ecoli rRNA inh | Ecoli rRNA inh OD600 | Ecoli rRNA inh RFP
COc1ccc2c3c([nH]c2c1)[C@@H](CO)N(C(C)=O)CC31CN(C(C)=O)C1 | 0.7 | i | 3 | 20 | -4.5
CN1[C@@H]2c3ccc(-c4ccccc4F)c(=O)n3C[C@@H]2[C@@H](CO)[C@@H]1C(=O)Nc1nccs1 | 2.4 | i | 0 | 4 | 2.9
CO[C@H]1CN(C)C(=O)c2cc(NC(C)=O)ccc2OC[C@@H](C)N(S(C)(=O)=O)C[C@@H]1C | -5.9 | i | 2 | 3 | -0.4
CN1CCN(C(=O)C[C@H]2CC[C@H]3[C@@H](COC[C@@H](O)CN3Cc3cccc(Cl)c3)O2)CC1 | -0.8 | i | 0 | -4 | 0.7
O=C(c1cccnc1)N1CC2(C1)[C@H](c1ccccc1)[C@H](CO)N2CC1CC1 | -0.2 | i | 4 | -1 | -0.5
C[C@@H]1CN([C@@H](C)CO)C(=O)c2cc(NC(=O)Nc3ccc(F)cc3)ccc2O[C@@H]1CN(C)S(=O)(=O)c1ccc(F)cc1 | 2.7 | i | 1 | -24 | -1.1
CCCNC(=O)N(C)C[C@H]1Oc2cc(-c3ccccc3)ccc2S(=O)(=O)N([C@H](C)CO)C[C@H]1C | 1.6 | i | -6 | 1 | 3.0
C[C@@H]1CN([C@H](C)CO)C(=O)c2cc(NS(=O)(=O)c3ccc(Cl)cc3)ccc2O[C@@H]1CN(C)C(=O)NC1CCCCC1 | -5.7 | i | -2 | -2 | 0.3
CC(O)(P(=O)(O)O)P(=O)(O)O | -6.1 | i | 9 | 15 | 1.1
CCNC(=O)C1(C)CCCN(C(=O)c2cc(OC)ccc2Br)C1 (centres undefined) | -1.9 | i | 2 | 0 | -5.1
Cc1nc2c(OCC(=O)C(C)(C)C)cccn2c1N(C)Cc1cccs1 | -0.9 | i | 10 | -6 | 11
C[C@H](CO)N1C[C@H](C)[C@H](CN(C)S(C)(=O)=O)Oc2c(NC(=O)Nc3ccc4c(c3)OCO4)cccc2C1=O | 0.9 | i | 2 | 8 | 2.1
COc1ccc(OC)c(S(=O)(=O)NC(=O)C2(C)CCN2C(=O)CC2CCCC2)c1 (centres undefined) | -2.5 | i | 18 | 25 | 2.0
COCC(=O)N1CCCCN2[C@H](CO)[C@H](c3ccc(C#Cc4ccccc4)cc3)[C@H]2C1 | 1.0 | i | 0 | -3 | 5.1
C[C@H](CO)N1C[C@H](C)[C@H](CN(C)Cc2ccc(C(=O)O)cc2)OCCCC[C@H](C)Oc2ccc(NC(=O)CCCN(C)C)cc2C1=O | -2.0 | i | 5 | 0 | -2.8
C[C@@H]1CCCCO[C@@H](CN(C)S(=O)(=O)c2ccccc2)[C@H](C)CN([C@H](C)CO)C(=O)c2cc(NC(=O)Cc3ccccc3)ccc2O1 | 0.2 | i | -5 | 6 | 0.6
O=C(Nc1ccccc1)N1CCCCN2[C@H](CO)[C@H](c3ccc(C#Cc4cccnc4)cc3)[C@H]2C1 | 1.8 | i | -7 | 3 | -0.5
CCC(=O)N1[C@@H]2c3cccc(=O)n3C[C@@H]2[C@@H](CO)[C@@H]1C(=O)NCc1ccccc1F | -1.1 | i | 0 | 8 | -3.7
CC(C)CC#Cc1ccc2c(c1)O[C@@H](CN(C)C(=O)Cc1ccccn1)[C@H](C)CN([C@@H](C)CO)S2(=O)=O | 4.7 | i | 0 | -4 | 8.0
N#C[C@@H]1[C@@H](c2ccc(C#CC3CCCC3)cc2)[C@@H](CO)N1S(=O)(=O)c1ccccc1 | -1.5 | i | 2 | -21 | 38
COC(=O)c1cc2c(c3c4cc(C)ccc4n(S(=O)(=O)c4ccc(C)cc4)c13)C(=O)N(C)C2 | -2.8 | i | 6 | -1 | 2.7
COc1ccc(-c2cnc3c(c2)C(=O)N([C@H](C)CO)C[C@H](C)[C@H](CN(C)Cc2ccncc2)O3)cc1 | -0.7 | i | -1 | 3 | -1.0
Cc1cccc(-c2ccc([C@@H]3[C@H]4CN(CCC(F)(F)F)CCCCN4[C@H]3CO)cc2)c1 | 5.8 | i | -59 | -78 | -10
COc1ccccc1S(=O)(=O)N[C@H]1CC[C@H](CCNC(=O)C2CC2)O[C@H]1CO | 0.5 | i | -2 | 4 | -0.4
CCC(=O)Nc1ccc2c(c1)OC[C@H](C)N(Cc1ccccn1)C[C@@H](C)[C@H](OC)CN(C)C2=O | u | i | 0 | -1 | -1.4
CN1C(=O)c2cc(NC(=O)c3cnccn3)ccc2OC[C@@H]2O[C@H](CC(=O)NC3CCC3)CC[C@@H]21 | -3.0 | i | 1 | -2 | 0.0
CC(=O)N1CCCCN2[C@H](C1)[C@H](c1ccc(-c3ccc(F)cc3)cc1)[C@@H]2CO | -1.1 | i | -2 | 6 | -0.8
CCCCN1CC(COCc2ccccc2)Oc2cccc(NCc3ccc(OC)cc3)c2S1(=O)=O (centres undefined) | -1.3 | i | 19 | 13 | 1.7
Cc1cc(C)c2nc(-c3ccccc3)ccc2c1 | -2.8 | i | 26 | 20 | -1.1
OC[C@H]1[C@H](c2ccc(-c3ccccc3)cc2)[C@@H]2CN(CCC(F)(F)F)CCCCN12 | 6.8 | i | -54 | -77 | -5.8

Compound profiles, from the list above:
Cc1cccc(-c2ccc([C@@H]3[C@H]4CN(CCC(F)(F)F)CCCCN4[C@H]3CO)cc2)c1 is listed as AF4-AF9 inh: 5.8; FGF22 binding: i; Ecoli rRNA inh: -59; Ecoli rRNA inh OD600: -78; Ecoli rRNA inh RFP: -10
COC(=O)c1cc2c(c3c4cc(C)ccc4n(S(=O)(=O)c4ccc(C)cc4)c13)C(=O)N(C)C2 is listed as AF4-AF9 inh: -2.8; FGF22 binding: i; Ecoli rRNA inh: 6; Ecoli rRNA inh OD600: -1; Ecoli rRNA inh RFP: 2.7

Next part:
SMILES | AF4-AF9 inh | FGF22 binding | Ecoli rRNA inh | Ecoli rRNA inh OD600 | Ecoli rRNA inh RFP
CC(C)NC(=O)N(C)C[C@@H]1Oc2cc(C3=CCCC3)ccc2S(=O)(=O)N([C@@H](C)CO)C[C@H]1C | -5.8 | i | -5 | -6 | -4.2
CC=Cc1ccc2n(c1=O)C[C@@H]1[C@@H](CO)[C@H](C(=O)NCCc3cn(C)cn3)[C@H]2N1C(=O)C1CC1 (mixture of isomers) | 0.4 | i | 2 | 7 | 0.3
CC(C)c1cccc(-c2csc(C(C)(O)c3ccccc3)n2)c1 (centres undefined) | -4.6 | i | -30 | -54 | 5.7
NC(=O)c1cccc(-c2cnc3c(Nc4cccc(OC(F)(F)C(F)F)c4)nccn23)c1 | -2.0 | i | -3 | 0 | 1.9
O=C(NC1Cc2ccccc2C1)[C@@H]1[C@@H](CO)[C@@H]2Cn3c(cccc3=O)[C@H]1N2C(=O)CC1CC1 | -5.2 | i | 2 | 7 | -1.7
CC(C)NC(=O)Nc1ccc2c(c1)C(=O)N([C@@H](C)CO)C[C@H](C)[C@@H](CN(C)Cc1ccc(C(=O)O)cc1)OCCCC[C@H](C)O2 | -5.3 | i | -1 | 3 | -0.2
C[C@@H]1CN([C@H](C)CO)C(=O)c2cc(NC(=O)CCCN(C)C)ccc2O[C@@H](C)CCCCO[C@H]1CN(C)S(=O)(=O)c1ccc(Cl)cc1 | 4.7 | i | -1 | 2 | 0.9
CC(=O)N1[C@H](CO)[C@H]2c3ccccc3N(S(=O)(=O)c3ccccc3F)C[C@H]21 | -1.7 | i | 1 | 5 | 3.6
O=C(C[C@H]1C[C@H]2c3cc(NC(=O)CC4CC4)ccc3O[C@H]2[C@H](CO)O1)NCc1ccc(-c2ccccc2)cc1 | -1.0 | i | 1 | -5 | 3.4
C[C@H]1CN([C@@H](C)CO)S(=O)(=O)c2ccc(C#CC(C)(C)O)cc2O[C@@H]1CN(C)C(=O)C1CCCCC1 | 3.4 | i | 0 | 2 | 4.3
C[C@H](CO)N1C[C@H](C)[C@H](CN(C)S(=O)(=O)c2cccs2)Oc2ccc(NC(=O)Cn3cnnn3)cc2C1=O | -1.5 | i | -2 | -2 | -2.0
C[C@H]1CCCCO[C@@H](CN(C)Cc2ccc(C(=O)O)cc2)[C@@H](C)CN([C@@H](C)CO)C(=O)c2cc(NC(=O)c3ccncc3)ccc2O1 | -2.9 | i | 2 | 5 | 0.7
CO[C@H]1CN(C)C(=O)c2cc(NS(=O)(=O)c3cn(C)cn3)ccc2OC[C@H](C)N(CCC(F)(F)F)C[C@@H]1C | -1.6 | i | 1 | 0 | 1.0
CO[C@@H]1CN(C)C(=O)c2cc(NC(=O)Nc3cccc(F)c3)ccc2OC[C@@H](C)N(C)C[C@H]1C | 4.7 | i | 1 | 0 | 2.9
O=C(C[C@H]1CC[C@H](NC(=O)C2CC2)[C@@H](CO)O1)NCC1CC1 | -0.7 | i | 0 | -3 | -0.1
